HSD17B inhib – HSD17B dehydrogenase inhibition; Potency, µM (highest dose often 57.1 µM), without a hit: top-dose activity change, negative = inhibition, hits mostly inhibitors; AID 893; actives 7.6% (n = 75,000); recombinant HSD17B10, NADH fluorescence kinetic; many of its hits are not listed in these tables; Q99714; active = well fitted inhibition curve with a large enough effect; inconclusive = small, poorly fitted or top-dose-only effect; inactive = no such curve, though single readings can be large or run the other way;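 note: the protocol describes HADH2 (HSD17B10) and not the HSD17B4 of the title; nearly all actives have a fitted effect of over 70% in size; most hits overshoot -100% by far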
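His-tagged E. coli-expressed HADH2 at 20 nM in 100 mM Tris-HCl pH 9.0 with 0.01 % Tween-20, preincubated 15 min with compound at room temperature. Reaction with 1 mM NAD+ and 90 uM beta-hydroxybutyryl coenzyme A; NADH fluorescence (360/450 nm) read kinetically over 4 min, last minus first point.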
Starred values were filed as active, the others as inactive; ? = inconclusive; [ ] = dose if it differs, or a comment. % is set by controls: 0 for no effect and ±100 for the full control effect; potency is the fitted concentration of half-maximal effect.

SMILES	HSD17B inhib
CC(C)N(C(=O)COC(=O)c1ccc(O)cc1)C(C)C	2%
COc1ccc(OC)c(S(=O)(=O)Nc2cc(Cl)cc(Cl)c2)c1	-2%
C=C(C)CN(CC)c1nc(N)c(C#N)c(CC#N)c1C#N	?
COc1ccc(CN(C(=O)c2ccco2)C2CC(C)N(C)CC2C)cc1 (centres undefined)	3%
COc1cc(OC)cc(C(=O)N(Cc2nc(-c3cccc(C)c3)no2)C(C)C)c1	-21%
COc1ccccc1C(=O)N1CCCC(c2nc(-c3cc(OC)c(OC)c(OC)c3)no2)C1 (centres undefined)	-5%
O=C1c2ccccc2C(=O)N1CC#CCN1CCN(C2CCCCC2)CC1	-6%
CCCCn1nnnc1NCc1cccnc1	-9%
COCC(=O)N1CCC2(CC1)CCN(c1ncccn1)CC2	-7%
COc1cccc(C(=O)NCc2nnc(SCC(=O)Nc3nccs3)n2-c2ccccc2)c1	4%
C#CCN1CC(C)/C(=N/O)CC1C (centres undefined)	8%
Cc1oc2c(CN3CCCC3)c(O)ccc2c(=O)c1-c1ccc(Cl)cc1	32µM*
CCC(Oc1ccccc1)C(=O)N1CCN(c2ccccn2)CC1 (centres undefined)	25µM*
NC(=O)c1c(NC(=O)c2cc3ccccc3o2)sc2c1CCC2	32µM*
CCOC(=O)CCc1c(C)c2ccc(OCc3nn[nH]n3)c(C)c2oc1=O	32µM*
CCOc1cccc(CN2CCN(c3cccc(C(F)(F)F)c3)CC2)c1O	-25%
COc1ccc(CNc2oc(Cc3cccc4ccccc34)nc2C#N)cc1	-7%
O=C(N1CCCCC1)N1CCN(c2ccc(Cl)cc2)CC1	0%
COc1ccc2c(c1)Cc1sc(NC(C)=O)nc1-2	-14%
CC(=O)O[C@H](CC(=O)O)C[N+](C)(C)C	4%
CCC(C)(C)n1nnnc1C(c1ccc2ncccc2c1)N1CCN2CCCC2C1 (centres undefined)	18%
Cc1nc(C)c(C(=O)C2=C(O)C(=O)N(CCN3CCOCC3)C2c2cccnc2)s1 (centres undefined)	-3%
Cc1cc(C)n(-c2cc(=O)n(C)c(=O)n2C)n1	16%
COc1cc(CN(C)CCc2ccccn2)cc(OC)c1OC	1%

Five entries from above, bar-delimited:
mol | HSD17B inhib
O=C(N1CCCCC1)N1CCN(c2ccc(Cl)cc2)CC1 | 0%
CCC(C)(C)n1nnnc1C(c1ccc2ncccc2c1)N1CCN2CCCC2C1 (centres undefined) | 18%
Cc1cc(C)n(-c2cc(=O)n(C)c(=O)n2C)n1 | 16%
COc1cc(CN(C)CCc2ccccn2)cc(OC)c1OC | 1%
CCOC(=O)CCc1c(C)c2ccc(OCc3nn[nH]n3)c(C)c2oc1=O | 32µM*

New compounds follow.
SMILES	HSD17B inhib
CNc1nc(-c2cccc(NS(C)(=O)=O)c2)nc2ccccc12	7%
COc1ccc(OC)c(-c2oc3ccccc3c(=O)c2O)c1	-11%
CCN(CC)S(=O)(=O)c1cccc(-c2nnc(SCc3nnc(-c4cccs4)o3)n2N)c1	3%
O=C(O)CSCC(=O)Nc1cccc2ccccc12	2%
O=S(=O)(c1ccccc1)N(C1=NCCS1)S(=O)(=O)c1ccccc1	-4%
O=C(CCCn1c(=O)[nH]c2cc(Cl)ccc2c1=O)NCCCN1CCCC1=O	-5%
Cc1oc(C(=O)O)cc1COc1ccc2c(C)cc(=O)oc2c1	25µM*
Cc1nc2c(-c3ccccc3)c(C)[nH]n2c(=O)c1Cl	?
CCOC(=O)c1csc(NC(=O)C2CCCCC2)n1	1%
O=C(c1ccc(O)cc1)c1ccc(Cl)cc1	-8%
O=C(c1nn2c(C(F)(F)F)cc(-c3ccc(F)cc3)nc2c1Cl)N1CCOCC1	-4%
CCOC(=O)C1=C(C)NC(=O)NC1c1cc(Br)c(O)c(OC)c1 (centres undefined)	9%
Cc1ccc(S(=O)(=O)c2nc(-c3ccccc3)oc2NCc2cccnc2)cc1	-3%
C/C=C/c1ccc(Oc2nnnn2-c2ccc(C(=O)O)cc2)c(OC)c1	-5%
O=C(Nc1nn[nH]n1)c1nc(-c2ccccc2)cc(=O)[nH]1	?
O=C(CN1CCC(C(=O)c2ccc(Cl)cc2)CC1)Nc1ccc2c(c1)OCCO2	2%
CC(C)c1ccc(C(=O)N2CCN(CCO)CC2)cc1	4%
CN(CP(=O)(O)C(O)c1ccccc1)S(C)(=O)=O (centres undefined)	4%
CC1CN(C(=O)c2cc(S(=O)(=O)N3CCCC3)c(Cl)cc2Cl)CC(C)O1 (centres undefined)	-7%
O=C(CSc1nc(N2CCCCC2)nc(N2CCCCC2)n1)N1CCN(c2ccccc2)CC1	3%
O=c1c2ccccc2n2nnnc2n1-c1ccccc1	8%
Oc1ccc(Cl)c2cccnc12	-6%
O=C(NCc1ccc(F)cc1)N[C@@H](Cc1ccccc1)C(=O)O	8%
O=C(NCCC[N+]1=CC=N[C@H]1c1ccccc1)N1CCCc2nc(-c3ccc(Br)cc3)ccc21	-1%[11.4 µM]

The list goes on (4 carried over from the part before).
SMILES	HSD17B inhib
O=c1c2ccccc2n2nnnc2n1-c1ccccc1	8%
Oc1ccc(Cl)c2cccnc12	-6%
O=C(NCc1ccc(F)cc1)N[C@@H](Cc1ccccc1)C(=O)O	8%
O=C(NCCC[N+]1=CC=N[C@H]1c1ccccc1)N1CCCc2nc(-c3ccc(Br)cc3)ccc21	-1%[11.4 µM]
CCOC(=O)N1CCN(C(=O)c2cn(CC(C)C)c(=O)c3c2c2ccccc2n3C)CC1	25µM*
COc1cccc2cc(C(=O)C3=C(O)C(=O)N(CCN4CCOCC4)C3c3cccs3)oc12 (centres undefined)	-22%
O=c1cc(-c2ccccc2O)oc2c(O)c(O)ccc12	6.3µM*
COc1cc(OC)c(C2C(C(=O)O)c3ccccc3C(=O)N2C)cc1OC (centres undefined)	4%
CCOC(=O)N1CCN(S(=O)(=O)c2ccc(C)cc2)C1c1ccc(OC)cc1 (centres undefined)	3%
COc1ccc(N2CCC(CNC(=O)Nc3ccc(C)c(C)c3)C2)cc1 (centres undefined)	-19%
O=C(O)[C@H]([C@H]1NCCS1)N1C(=O)c2ccccc2C1=O	11%[11.4 µM]
Cc1ccccc1N(C(=O)CCC(=O)Nc1ccccn1)C(C(=O)NC(C)C)c1ccc(O)cc1 (centres undefined)	5%
c1ccc(-n2nnnc2SCc2cccc3nsnc23)cc1	3%
CCOc1ccc(-n2c(=O)[nH]cc(C(=O)N3CCCc4ccccc43)c2=O)cc1	2%
CCCCC(=O)Nc1ccc(NC(=O)c2cc(OC)c(OC)c(OC)c2)cn1	-16%
CN1CCN(c2nc(NCCOC34CC5CC(CC(C5)C3)C4)nc(OCC(F)(F)F)n2)CC1	10%

Looked up by compound from the entries so far, four records:
SMILES	HSD17B inhib
Cc1ccccc1N(C(=O)CCC(=O)Nc1ccccn1)C(C(=O)NC(C)C)c1ccc(O)cc1 (centres undefined)	5%
c1ccc(-n2nnnc2SCc2cccc3nsnc23)cc1	3%
CCOC(=O)N1CCN(S(=O)(=O)c2ccc(C)cc2)C1c1ccc(OC)cc1 (centres undefined)	3%
CCOC(=O)N1CCN(C(=O)c2cn(CC(C)C)c(=O)c3c2c2ccccc2n3C)CC1	25µM*

Continued:
SMILES	HSD17B inhib
COc1ccc(Cn2c(C3CC3)nc3ccc(NC(=O)C4CC4)cc3c2=O)cc1	-21%
CCn1c(SCC(=O)N2CCC(C(N)=O)(N3CCCCC3)CC2)nnc1-c1ccccc1	8%
O=C1CC(Nc2ccc(N3CCOCC3)cc2)C(=O)N1C1CCCCC1 (centres undefined)	8%
Cc1ccc2[nH]c(-c3cccc(N)c3)cc2c1	25µM*
Cc1c(C(=O)NCc2cccnc2)sc2ncn(CC(=O)N3CCCCC3C)c(=O)c12 (centres undefined)	4%
Cc1ccc(CN2CCN(CC(=O)N3CCc4ccccc4C3)C2=O)cc1	5%
Cc1ccc(C(=O)N2CCOCC2)cc1S(=O)(=O)Nc1cccc(C)c1C	1%
C(=N\n1cnnc1)/c1ccc2c(c1)OCO2	?
CCCCC(=O)Nc1cccc(NC(=O)c2ccc3c(c2)OCO3)c1	49%[activator]
Cc1ccc(-n2cnc3c(sc4nccc(N(C)C)c43)c2=O)cc1	-17%
CCn1c(=O)c2[nH]c(-c3ccccc3)nc2n(CC)c1=O	?
O=C(CCCN1C(=O)c2ccccc2C1=O)NC1=NCCS1	4%
COCCn1c(=O)[nH]c2cc(C(=O)NCCN3CCN(c4ccccc4F)CC3)ccc2c1=O	32µM*
O=C(CN1C(=O)CSC1=O)Nc1ccc(C(=O)O)cc1	-4%
COc1cccc(C(=O)N(Cc2ccc(N(C)C)cc2)C2CCS(=O)(=O)C2)c1 (centres undefined)	-8%
CCS(=O)(=O)N1CCN(C(=O)c2cccc(OC)c2)CC1	16%
CC(=O)c1cccc(N(CC(=O)N2CCCC2)S(C)(=O)=O)c1	4%
CCOC(=O)N1CCN(C(=O)CN(C2CCCCC2)S(=O)(=O)c2ccc(F)cc2)CC1	1%
O=C(O)CN1CCN(Cc2ccccc2Cl)C1=O	4%
COC(=O)CSc1ncnc2c1cnn2Cc1ccccc1	4%
c1nc(NC2CCNCC2)c2cc(-c3ccc4c(c3)OCO4)ccc2n1	?
CCc1ccccc1NC(=O)N1C2CCCC1CC(NC(C)=O)C2 (centres undefined)	3%
N#Cc1cc2c(nc1SCC(=O)Nc1sc3c(c1C#N)CCC3)CCCCC2	28%
COc1ccc(N(C)C(=O)CC2(CC(=O)O)CCCCC2)cc1	3%
Cc1occc1C(=O)Nc1cc(=O)n(C)c(=O)n1C	3%
CCOC(=O)CCSc1nnc(-c2cccnc2)n1-c1ccccc1OC	1%
CC(C)(C)P(=O)(CO)c1ccccc1 (centres undefined)	4%
Cn1c(CNC(=O)c2ccco2)nnc1SCC(=O)N1c2ccccc2Sc2ccccc21	-9%
COc1ccc(S(=O)(=O)N(C)CC(=O)N2CCN(C)CC2)cc1C	4%
CC(=O)N1CCc2cc(S(=O)(=O)NCCN3CCC(C)CC3)ccc21	-5%
Cc1cc(C)nc(SCc2nnc(SCC(=O)Nc3nccs3)n2Cc2ccco2)n1	-9%
CC(C)=CCNc1ncnc2c1c(C#N)cn2[C@H]1O[C@@H](CO)[C@@H](O)[C@@H]1O	3%[11.4 µM]
CN(C)c1cccc(NC(=O)CCc2ccccc2)c1	-1%
COCCn1nnnc1CN(CCc1ccccc1)Cc1cc2ccc(C)cc2[nH]c1=O	0%
CCn1nnnc1-c1ccc(OC)c(S(=O)(=O)NCCc2ccccc2)c1	-4%
O=C(c1ccccc1-c1nc2ccccc2[nH]1)N1CCCCC1	-4%
CC(C)CN1CC2(CCN(S(=O)(=O)c3ccccc3)CC2)C1	3%
Cn1cccc1-c1nc2ccc(NC(=O)c3ccccc3)cc2[nH]1	-8%
Cc1ccc(Cl)cc1NC(=O)Cn1cc2c(n1)CCCC2	4%
Cc1ccc(Cl)cc1-n1c(=O)cc(N2CCN(C(=O)c3ccco3)CC2)[nH]c1=O	6%
O=C1/C(=C/c2cccnc2)SC(=S)N1Cc1ccco1	0%[11.4 µM]
CSCCC(NC(=O)C1CCC(C)CC1)C(=O)O (centres undefined)	-2%
CC(C)(C)N(C=C(Cl)Cl)C(=O)NC1CCCCC1	7%
C=CCc1c(C)nc(SCc2nc3ccccc3c(=O)[nH]2)[nH]c1=O	-2%
COc1ccc(NC(=O)c2cccc(NC(=O)c3ccco3)c2)c(OC)c1	2%
CCC(=O)Nc1ccccc1N1CCN(S(C)(=O)=O)CC1	1%
O=C(C1CCN(S(=O)(=O)N2CCOCC2)CC1)N1CCN(Cc2ccccc2)CC1	-2%
COc1ccc(OC)c(-c2cc(C(=O)N3CCN(c4ncccn4)CC3)c3ccccc3n2)c1	-11%
COc1cc(C2c3c(oc4ccc(Cl)cc4c3=O)C(=O)N2Cc2ccco2)cc(OC)c1OC (centres undefined)	-8%
O=C(CSC1=NCCS1)Nc1ccc(S(=O)(=O)N2CCCCCC2)cc1	12%
COc1ccccc1CNC(=O)CNCC1CCCO1 (centres undefined)	9%
COc1ccc(NC(=O)CN2CCN(S(=O)(=O)c3ccc(Cl)cc3)CC2)cc1	2%
CCc1ccc(C2CC(c3ccc(C)cc3)Nc3nc(N)nn32)cc1 (centres undefined)	-8%
CCOC(=O)c1c(C)c(C(=O)NCCN2CCOCC2)c(C)n1CC	4%
CCOC(=O)N1CCN(Cc2cc(=O)oc3cc4c(cc23)CCC4)CC1	-22%
CN1CCN(C(=O)c2ccc(C3SCC(=O)N3Cc3ccco3)cc2)CC1 (centres undefined)	4%
O=C(COc1ccccc1)NCCc1cn2ccsc2n1	9%
Cn1c(=O)c2c(nc(N3CCCCCC3)n2CC(O)COc2ccccc2)n(C)c1=O (centres undefined)	4%
COC(=O)c1cn[nH]c1N	-6%
COC(=O)c1ccc(NC(=O)c2cccc(OC)c2)cc1	-8%
(further entries)
SMILES	HSD17B inhib
CCOC(=O)c1ccccc1NC(=O)CN(c1cccc(OC)c1)S(C)(=O)=O	-2%
COc1ccc(OCC(=O)N2CCN(C(=O)c3ccccc3)CC2)cc1	6%
CNC(=O)C1=NCCCc2cc(OC)c(OC)cc21	6%
C[C@H]1C[C@]2(O[C@@H]2C)C(=O)O[C@@H]2CCN(C)C/C=C(/COC(=O)[C@]1(C)O)C2=O	-1%
O=C(NCC1CCCO1)c1nn2c(c1Cl)NC(c1ccc(F)cc1)CC2C(F)(F)F (centres undefined)	4%
CN1C(=S)SC(/[N+]([O-])=C/c2cccnc2)C1(C)C (centres undefined)	5%
Cc1cc(C)c2ccc(N)nc2c1O	11%
COC(=O)c1ccc(NC(=O)CN2CCN(c3ccc(Cl)cc3)CC2)cc1	9%
COCCn1c(COC)nc2ccccc21	-1%
COc1cccc(C2C3=C(CCCC3=O)Nc3nc4ccccc4n32)c1OC (centres undefined)	3.2µM*

Some of the compounds tested, so the mix of outcomes need not match the whole.
